Screens deposited in PubChem by National Center for Advancing Translational Sciences (NCATS).
Rango dissoc inh – qHTS Assay for Inhibitors of RanGTP induced Rango (Ran-regulated importin-beta cargo) - Importin beta complex dissociation. 340,000 tested, 0.071% active. Biochemical FRET Rango-importin beta, RanGTP-induced dissociation. Potency, µM (top dose mostly 46.1 µM), inactives show at the top dose activity change, negative = inhibition; active means falling FRET ratio curve, often poorly fitted, with flat reads before Ran was added; inconclusive means other falling curves, or compound fluorescence or quenching; inactive means flat or rising ratio curve;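 note: potency is the fitted concentration of half-maximal effect; % of control where 0% means no effect; nearly all actives have a fitted effect of over 45% in size; -100% = wells without RanGTP and RCC1; the record marks most hits as doubtful in a second field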
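Two FRET readings bracket the reaction: one 5 min after compound meets Rango–importin beta, another 45 min after RanGTP-RCC1 (0.6 uM Ran, 0.2 uM RCC1, 2 mM GTP) is added. Only the second defines inhibition.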
GLA inh pH 4.5 – qHTS Assay for Inhibitors of Human alpha-Galactosidase at pH 4.5 | Alpha-galactosidase A (Homo sapiens), P06280 | purified enzyme, 4-MU-alpha-Gal fluorescence, pH 4.5 | activity change, negative = inhibition, % at 105 µM | 230,000 tested, under 10 active; inconclusive = small, poorly fitted or top-dose-only inhibition, or a rising curve; inactive = flat fitted curve, though single readings scatter; no compound was filed as active;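 note: 0% = full activity with enzyme and -100% = basal without enzyme; dose as in the result columns while the protocol names 77 µM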
Target sequence (P06280 whole entry, looked up): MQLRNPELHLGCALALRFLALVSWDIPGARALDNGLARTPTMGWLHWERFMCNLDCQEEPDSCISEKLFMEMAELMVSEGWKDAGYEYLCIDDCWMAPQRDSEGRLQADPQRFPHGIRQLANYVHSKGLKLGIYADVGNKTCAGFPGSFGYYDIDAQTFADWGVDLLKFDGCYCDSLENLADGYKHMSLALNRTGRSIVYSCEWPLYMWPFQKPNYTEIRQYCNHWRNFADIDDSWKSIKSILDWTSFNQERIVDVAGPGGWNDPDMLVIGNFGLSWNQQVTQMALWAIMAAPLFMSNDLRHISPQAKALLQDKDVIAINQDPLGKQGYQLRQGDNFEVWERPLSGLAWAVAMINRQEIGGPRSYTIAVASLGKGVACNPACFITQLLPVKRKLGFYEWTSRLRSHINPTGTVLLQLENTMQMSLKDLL
miR-21 reporter – qHTS Assay for Modulators of miRNAs and/orActivators of miR-21 | HeLa miR-21 FLuc reporter, luciferase, 48 h | Potency, µM (top dose mostly 38.3 µM), for the others: top-dose reporter change, positive = more light | 340,000 tested, under 10 active | AID 2288, 2010; active = well fitted rising curve with a large enough effect; inconclusive = small, poorly fitted or top-dose-only effect; inactive = no such curve, though single readings can be large or run the other way;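 note: % of control where 0% means no effect; miR-21 action dims this reporter so a rising signal means less miR-21 action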
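Compounds were titrated across several concentrations (up to approximately 40 uM) and incubated 48 hours with HeLa miR-21-FLuc reporter cells (miR-21 target sequence downstream of FLuc, endogenous miR-21). Readout was firefly luciferase luminescence after lytic detection reagent.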
Rango complex inh – qHTS Assay for Inhibitors of Rango (Ran-regulated importin-beta cargo) - Importin beta complex formation; Importin subunit beta-1 (Homo sapiens), Q14974; Rango CFP/YFP FRET sensor + importin beta, 45 min; Potency, µM (doses to about 92.2 µM), without a hit: at the highest dose inhibition of complex formation; 340,000 tested, 0.031% active; AID 540263, 2011; active = rising FRET ratio curve, often small or poorly fitted; inconclusive = mostly compound fluorescence or quenching in the first reads; inactive = flat curves in all reads;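 note: potency is the fitted concentration of half-maximal effect; 0% = DMSO wells and 100% = buffer wells lacking importin beta; nearly all actives have a fitted effect of over 15% in size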
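FRET biosensor Rango (snurportin 1 IBB between N-terminal EYFP and C-terminal Cerulean), 50 nM in PBS/1 mM DTT/0.02% Tween-20/0.1% BSA, preincubated 5 min RT with compound; 0.125 microM importin beta added, 45 min RT, CFP/YFP FRET ratio read.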
Numbers without * were called inactive; ? = inconclusive; nt = no result given; & = joins results of further samples; [ ] = remark or other dose. Not all compounds are listed. The share of hits here may be higher or lower than overall.

Start of the data: the first 3 records, to show the layout:
SMILES | Rango dissoc inh | GLA inh pH 4.5 | miR-21 reporter | Rango complex inh
O=[N+]([O-])c1ccccc1/C=N/n1c(-c2ccccc2)n[nH]c1=S | 4.2% | nt | -8.6% | -0.2%
O=C(CSc1nnc(-c2ccccc2)o1)OCc1ccccc1 | -1.3% | 6.0 | -3.1% | -2.1%
COc1cc(OC)c(C(=O)OCC(=O)Nc2cccc(S(=O)(=O)NC3=NCCCCC3)c2)cc1OC | 9.8% | nt | nt | -0.9%

The whole of this part (from the top)
SMILES | Rango dissoc inh | GLA inh pH 4.5 | miR-21 reporter | Rango complex inh
O=[N+]([O-])c1ccccc1/C=N/n1c(-c2ccccc2)n[nH]c1=S | 4.2% | nt | -8.6% | -0.2%
O=C(CSc1nnc(-c2ccccc2)o1)OCc1ccccc1 | -1.3% | 6.0 | -3.1% | -2.1%
COc1cc(OC)c(C(=O)OCC(=O)Nc2cccc(S(=O)(=O)NC3=NCCCCC3)c2)cc1OC | 9.8% | nt | nt | -0.9%
COc1cccc(NC(=O)CN(C)C(=O)c2cccc(S(=O)(=O)Nc3ccccc3OC)c2)c1 | 0.1% | nt | nt | 0.0%
CCCCN1CC2=C(C1=O)C(c1ccc(O)cc1)NC(=O)N2C (stereo not given) | 9.3% | 1.5[21.1 µM] | 0.7% | -1.6%
CN(C)C(CNC(=O)c1cc(S(=O)(=O)N(C)c2ccc(F)cc2)ccc1Cl)c1cccs1 (stereo not given) | 0.1% | nt | nt | 5.3%
CCOC(=O)CSCC(=O)N1CCC(Cc2ccccc2)CC1 | 1.9% | nt | -1.5% | -0.1%
Cc1c(F)cccc1NS(=O)(=O)c1ccc2c(c1)c(C)cc(=O)n2C | -4.6% | nt | 6.5% | -0.3%
CCOC(=O)N1CCC(N2C(=O)c3ccccc3C2Nc2cc(OC)c(OC)c(OC)c2)CC1 (stereo not given) | -3.8% | -2.6 | 1.8% | -1.2%
Cc1c(C=O)c2ccccn2c1C(=O)c1cccs1 | ? | -7.2 | -7.7% | ?
COc1ccc2cc(C(=O)C3CCCN(C(=O)c4cccnc4)C3)ccc2c1 (stereo not given) | 24.2% | nt | -12.9% | -2.5%
Cc1nc(-c2ccc(Cl)cc2)sc1C1(C)CC(c2ccc(F)cc2)=NO1 (stereo not given) | -4.6% | nt | -17.8% | -2.4%
CN(Cc1cccc(F)c1)C(=O)c1ccc(NS(=O)(=O)c2ccc3[nH]c(=O)[nH]c3c2)cc1 | -3.0% | nt | nt | -3.8%
CCC(c1ccc(O)cc1)C(CC)c1ccc(O)cc1 (stereo not given) | -11.0% | -2.7 | nt | 1.1%
Cc1cccc(C(=O)N2CCN(c3ccc([N+](=O)[O-])c(NCc4ccco4)c3)CC2)c1 | 0.9% | -4.8 | -6.9% | -0.1%
COc1ccccc1Nc1nn2c(=O)c3ccc(C(=O)N4CCCC(C)C4)cc3nc2s1 (stereo not given) | 0.9% | nt | ? | 1.0%
CCC(CO)Nc1ncnc2c1cnn2-c1ccc(OC)cc1 (stereo not given) | -12.8% | -18.0 | -22.6% | -2.3%
COC(=O)CNC(=O)C1Cc2ccccc2CN1S(=O)(=O)c1ccc(F)cc1 (stereo not given) | -0.5% | nt | -0.4% | -1.3%
O=C1CC(C(=O)NCCc2ccccc2)SC(=Nc2ccccc2)N1 (stereo not given) | -5.1% | -0.2 | 1.0% | 3.1%
Cc1ccccc1C(=O)NCC(c1ccco1)N1CCc2ccccc21 (stereo not given) | -4.9% | nt | nt | ?
Cc1cc(C(=O)CSc2nnc(-c3ccc4c(c3)OCO4)o2)c(C)n1-c1ccc(F)cc1 | -10.3% | 7.4 | -0.9% | 2.4%
Cc1ccc(C(C(=O)NC2CCCCC2)N2CCOCC2)cc1 (stereo not given) | 0.8% | 5.5 | -6.9% | 0.2%
NC(=O)c1c(NC(=O)c2cccs2)sc2c1CCCCCC2 | 11.4% | -11.4 | -26.1% | ?
CC(=O)[C@@]1(O)CCC2C3CC[C@H]4C[C@@H](O)CC[C@]4(C)C3CC[C@@]21C (stereo not given in full) | -0.6% | nt | nt | -3.0%
Cn1c(CNc2cccc(Cl)c2)nnc1SCC#N | -9.9% | 2.2 | 1.0% | -0.1%
COc1ccc(NC(=O)/C(C#N)=C/c2ccc3c(c2)n(C)c(=O)n3C)cc1 | ? | -0.2 | -6.1% | -2.6%
Cc1ccc([C@@H]2CC=C(C(=O)O)[C@H](c3cccc(Cl)c3)N2S(=O)(=O)c2ccccc2C)cc1 | -20.2% | nt | nt | -2.5%
Cc1cc(-c2nnc(SCC(=O)Nc3cccc(C)c3C)n2N)n[nH]1 | 0.6% | nt | 6.9% | -0.1%
CN(CC(=O)Nc1ccc(C(N)=O)cc1)CC(=O)Nc1ccccc1Br | 13.4% | -12.2 | -14.7% | 1.6%
Cc1ccc(C(=O)N2CCN(S(=O)(=O)c3ccc(Br)cc3)CC2)o1 | 1.5% | nt | -7.7% | -0.2%
O=C(N=C1SC2CS(=O)(=O)CC2N1c1ccccc1)C1CC1 (stereo not given) | -10.0% | nt | 0.0% | ?
CC(NC(=O)COC(=O)Cc1ccccc1[N+](=O)[O-])c1ccccc1 (stereo not given) | -9.6% | 0.3 | 3.5% | -5.2%
CCS(=O)(=O)N1CCC(NC(=O)C2CCCCC2)CC1 | -3.6% | -1.4 | 0.6% | 1.4%
CCN1CCN(CC(=O)N/N=C/c2ccc(F)cc2F)CC1 | 15.0% | -7.6 | 0.7% | -0.9%
Cc1ccc(-n2c(Cn3nc(C(F)F)cc3C(F)F)n[nH]c2=S)cc1 | -1.5% | -0.1 | -2.9% | -2.4%
CC(C)(C)c1cnnn1-c1cccc([N+](=O)[O-])c1 | -7.1% | -4.7 | -12.6% | 0.1%
COc1ccc(-n2c(C)cc(=O)[nH]c2=O)cc1 | -7.7% | nt | -0.7% | -3.9%
COc1ccc2oc(=N)c(C(=O)Nc3ccccc3Cl)cc2c1 | 14.1% | nt | -66.8% | 0.4%
O=[N+]([O-])c1c(NCCCO)cc(N2CCCCCC2)c2nonc12 | -7.1% | nt | -6.4% | ?
CC(C)c1cccc(C(C)C)c1NC(=O)CCN1C(=O)NC2(CCCC2)C1=O | 2.6% | nt | nt | 1.9%
COc1cc(N)ccc1Cc1ccc(N)cc1OC | -16.0% | 5.1 | -8.9% | 5.5%
CCC(CC)c1nnc(NC(=O)C2COc3ccccc3O2)s1 (stereo not given) | 0.4% | -0.4 | -31.3% | -4.4%
COc1ccccc1S(=O)Cc1ccc(C(=O)NCCc2ccc(Cl)cc2)o1 (stereo not given) | -4.1% | -16.6 | 21.5% | -0.7%
Fc1cccc(Cl)c1COc1ccc(-c2nnco2)cc1 | -1.6% | nt | -27.2% | -3.0%
CCS(=O)(=O)NCc1ccc2[nH]c3c(c2c1)CCCC3 | nt | -4.2 | -4.1% | nt
COc1ccc(C2CC(c3ccccc3OC(C)=O)=NN2C(=O)/C=C/c2ccccc2)cc1 (stereo not given) | -4.7% | -9.5 | -10.4% | 0.3%
COc1ccc(OC)c(N/C(C)=C/C(=O)c2ccncc2)c1 | -0.2% | nt | -3.0% | -0.3%
Cc1nn(Cc2c(F)c(F)c(F)c(F)c2F)c(C)c1NC(=O)c1ccnn1C | 2.9% | nt | 0.0% | -1.5%
CCOC(=O)C1C(C(=O)Nc2cccc(C(F)(F)F)c2)C1C(=O)NC(C)C (stereo not given) | 1.7% | 1.0 | -0.8% | -1.5%
Cc1noc(C)c1S(=O)(=O)Nc1cc(C(F)(F)F)ccc1N1CCOCC1 | -9.7% | 1.2 | 7.1% | -0.5%
Cc1cccc(-n2nc3c(c2NC(=O)c2ccc(Br)o2)CSC3)c1C | 0.9% | -5.6 | -9.5% | ?
Cc1cccc(C)c1N=C1C(=O)Nc2ccccc21 | -9.9% | nt | -2.4% | -1.2%
CSc1nn2c(C(F)(F)F)cc(C(F)(F)F)nc2c1C(N)=O | 4.7% | -2.5 | 1.1% | -1.2%
O=C(Nc1ccc(S(=O)(=O)N2CCOCC2)cc1)c1ccc(F)cc1 | 15.3% | nt | 3.5% | -1.2%
Cn1c2ccccc2c(=O)c2c(=O)n(Cc3ccco3)c(-c3ccc(C(C)(C)C)cc3)nc21 | nt | -0.6 | -5.3% | nt
CN1CCc2c(sc(NC(=O)c3ccco3)c2C(N)=O)C1 | ? | nt | -21.2% | ?
CC[n+]1c(/C=C(\C)SC)sc2ccccc21 | -20.1% | -5.5 | 6.0% | -2.4%
Cn1nnc2cc(C(=O)NCc3ccco3)ccc21 | -11.2% | 2.8 | -10.7% | -2.3%
COc1cc([N+](=O)[O-])ccc1NC(=O)Nc1cnccn1 | -8.9% | nt | -0.7% | -0.8%
CCN(CC(=O)NCc1ccc(Cl)cc1)C(=O)CCOc1ccccc1C | -2.2% | nt | nt | 0.7%

More entries follow:
SMILES | Rango dissoc inh | GLA inh pH 4.5 | miR-21 reporter | Rango complex inh
COc1ccc(NC(=O)CSc2c3c(nc4ccccc24)CCCC3)c(OC)c1 | 24.4% | -9.8 | 9.3% | -0.7%
Cc1ccc(NC(=O)c2ccccc2F)nc1 | 0.9% | 17.1 | -26.1% | 6.0%
CC(OC(=O)/C=C/c1ccccc1)C(=O)Nc1cccc(C#N)c1 (stereo not given) | 20.0% | nt | nt | ?
NC(=O)N/N=C/c1ccc(-n2nncc2-c2ccc(Cl)cc2)cc1 | 4.1% | nt | -7.5% | 1.6%
Cc1ccc(S(=O)(=O)N2CCN(S(C)(=O)=O)C2c2ccccc2)cc1 (stereo not given) | -15.7% | 4.9 | -7.8% | 1.8%
Cc1cc(C)c(S(=O)(=O)C(C)C)c(=O)[nH]1 | -11.0% | 4.1 | -0.2% | 0.6%
COc1cc(OC)nc(Oc2ccccc2C(=O)Oc2ccccc2Cl)n1 | 4.5% | -4.7 | 2.5% | 1.1%
O=C(CN1CCN(c2cccc(C(F)(F)F)c2)CC1)Nc1cccc(C(F)(F)F)c1 | 8.9% | -21.4 | -1.3% | 0.9%
CCC1Oc2ccc(Cl)cc2N(CC(=O)O)C1=O (stereo not given) | 8.0% | 0.7 | -1.7% | -2.6%
COc1ccc(-n2c(=O)c3ccccc3n(Cc3ccccc3F)c2=O)cc1OC | -7.7% | 5.3 | 1.1% | -1.3%
CCCCNCC(=O)Nc1sc(C)c(C)c1C(=O)OCC | 22.1% | -11.0 | -7.0% | -2.4%
COc1ccc(-c2ncc3ccccn23)cc1 | ? | -4.0 | -58.0% | ?
Cc1ccc(N2C(=O)NC(NS(=O)(=O)c3ccccc3)(C(F)(F)F)C2=O)cc1C (stereo not given) | -1.6% | nt | -2.3%&-2.6% | -2.6%
O=C(COC(=O)c1cccs1)NCCCc1ccccc1 | 18.6% | 10.3 | -0.1% | -2.6%
CN(C(=S)Nc1ccccc1F)C1(c2ccccc2Cl)CCCCC1=O (stereo not given) | 6.2% | -16.4 | -10.7% | 1.6%
COc1ccc(-c2nc(C#N)c(N3CCC(C(N)=O)CC3)o2)cc1 | -2.2% | 7.9 | 0.2% | 3.3%
Cc1cc(C)cc(OCc2nnc(SCC(=O)NC3CC3)n2C)c1 | -3.5% | nt | 0.7% | -1.0%
CCOC(=O)c1cc(-c2ccccc2)sc1NC(=O)CN1C(=O)c2ccccc2C1=O | 0.3% | nt | nt | 1.0%
Cc1cc(OC(C)C(=O)NCCCn2ccnc2)c2c(C)c(C)c(=O)oc2c1 (stereo not given) | -9.3% | nt | -3.0% | 8.0%
Cc1cccc(NC(=S)Nc2ccc(Oc3ccccc3)cc2)n1 | -2.9% | 9.6 | -4.9% | -4.2%
O=C(c1ccc(Br)cc1)N1CCC(C(=O)N2CCN(c3ccccc3)CC2)CC1 | -9.9% | nt | 4.9% | 2.5%
Cc1noc(NS(=O)(=O)c2ccc(N/C=C\C(=O)c3ccccc3)cc2)c1C | 0.5% | -4.0 | -58.7% | -2.3%
Cc1c([N+](=O)[O-])c(C(=O)NC2CCCCC2)nn1C | 0.8% | nt | 0.6% | 1.7%
